Assay outcomes (PubChem BioAssay)
RecA intein inh – Mtb RecA intein splicing inhibitors, primary screen, biochemical, fluorescence, HTS | AID 2221, 2009 | Protein RecA (Mycobacterium tuberculosis (strain ATCC 25618 / H37Rv)), P9WHJ3 | inhibition, %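 (about 9 µM by stock and volumes)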 | 0.75% of 290,000 active | cell-free RecA intein splicing; in the data active = inhibition above about 30%;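 also: 0% = vehicle wells and 100% = reference inhibitor control wells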
Target sequence (P9WHJ3 whole entry, looked up): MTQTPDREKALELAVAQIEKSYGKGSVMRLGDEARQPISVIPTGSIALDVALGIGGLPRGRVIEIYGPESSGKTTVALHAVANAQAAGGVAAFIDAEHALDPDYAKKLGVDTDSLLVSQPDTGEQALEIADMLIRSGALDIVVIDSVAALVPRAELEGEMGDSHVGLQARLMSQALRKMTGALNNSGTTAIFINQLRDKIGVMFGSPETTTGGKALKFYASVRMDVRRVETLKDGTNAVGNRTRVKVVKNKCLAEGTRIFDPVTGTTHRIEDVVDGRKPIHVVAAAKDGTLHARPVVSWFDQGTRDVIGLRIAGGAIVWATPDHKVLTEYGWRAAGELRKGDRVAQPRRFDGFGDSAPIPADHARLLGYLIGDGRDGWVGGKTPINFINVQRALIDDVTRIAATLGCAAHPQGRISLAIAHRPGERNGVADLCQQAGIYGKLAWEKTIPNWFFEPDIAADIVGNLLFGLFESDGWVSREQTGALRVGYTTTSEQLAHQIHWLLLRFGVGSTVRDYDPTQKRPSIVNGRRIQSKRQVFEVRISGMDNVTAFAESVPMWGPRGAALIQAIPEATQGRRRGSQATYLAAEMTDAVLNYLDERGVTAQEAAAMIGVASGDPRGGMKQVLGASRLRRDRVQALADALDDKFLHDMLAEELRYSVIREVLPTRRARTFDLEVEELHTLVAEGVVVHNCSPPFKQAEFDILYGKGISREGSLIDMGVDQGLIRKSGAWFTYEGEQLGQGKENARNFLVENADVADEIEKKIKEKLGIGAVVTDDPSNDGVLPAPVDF
Mtb bLac sens – beta-lactam sensitization of Mtb H37Rv, H37Rv | inhibition, % at 25 µM | 0.27% of 330,000 active | M. tuberculosis H37Rv growth with meropenem, percent inhibition; hits of this screen are not shown here | AID 434955, 2010;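 active = about 74% or more and at least 40 points above the plate without the antibiotic, then above 30% in a dose series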;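 also: growth measured after seven days incubation then overnight dye step; 0% = bacteria only wells and 100% = bacteria with antibiotic; twin plates without the antibiotic show which effects depend on it; some results filed as inactive read as strong as hits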
Arbovirus inh – antivirals against arbovirus infection, primary screen, cell-based, full library, 10K replicate subset. inhibition, % at 10 µM. AID 1251, 2008. 0.37% of 200,000 active. arbovirus infection cell-based antiviral screen;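 active = inhibition from about 30%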;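 also: bluetongue infection of BSR cells; cell survival read as ATP light after 72 h; 0% = infected wells without compound and 100% = uninfected wells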
YopH inh – YopH tyrosine phosphatase inhibitors, primary screen, biochemical, fluorescence Ex485/Em525; YopH tyrosine phosphatase [Yersinia enterocolitica]; inhibition, %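 (about 10 µM by stock and volumes)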; 0.16% of 140,000 active;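 active = inhibition of 50% or more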;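 also: controls were vehicle for no effect and minimum signal wells for full effect; inactives centre near -20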
Mtb H37Rv – M. tuberculosis H37Rv growth inhibitors, H37Rv strain (AID 1626); M. tuberculosis H37Rv growth inhibition; higher % means a stronger effect; inhibition, % at 10 µM, or IC50 in µM where a hit was titrated; 0.95% of 220,000 active;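 active = confirmed in a dose series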;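 also: bacteria incubated seven days before Alamar blue readout; 0% = bacteria only wells and 100% = bacteria with antibiotic wells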
Arbovirus inh repeat – further read-out of Arbovirus inh, marked with its call; inhibition, %; measured here: 10K subset replicate screen; many hits read low in the repeat;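 first of two repeat runs on a subset; 0% = infected and 100% = uninfected wells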
An asterisk follows results filed as active; . = not tested or not shown.

SMILES	RecA intein inh	Mtb bLac sens	Arbovirus inh	YopH inh	Mtb H37Rv	others
Fc1ccc(CSc2ccc3nnc(-c4cccnc4)n3n2)cc1	1.1	3	-11	.	3%
CCN(CC)S(=O)(=O)c1ccc(C(=O)NNC2=NS(=O)(=O)c3ccccc32)cc1	-0.1	-7	.	.	.
O=c1[nH]c(=S)[nH]c(O)c1N=Nc1ccc2c(c1)OCO2	0.5	81	-23	.	4%
CSc1cccc(NC(=S)N2CCC(N(C)C3CCCC3)CC2)c1	-2.6	-3	-12	.	-10%
COc1ccccc1C/C(N)=N/OC(=O)COc1cccc2ccccc12	10	-6	14	-23	-7%
Cc1nc2ccccc2n1C(=O)N(C)C	-4.6	-1	2	.	-5%
O=C(N/C(=C\c1ccccc1)C(=O)N1CCOCC1)c1ccco1	-0.3	-3	.	.	.
Cc1ccc(C(=O)Nc2cccc(-c3ccc(N4CCOCC4)nn3)c2)cc1	-4.5	2	.	.	.
COc1cccc(/C=N/NC(=O)c2cnn(-c3ccccc3)c2N)c1	2.7	-1	.	.	8%
COc1ccc(/C=C/C(=O)c2c(O)n(CCC3=CCCCC3)c(=O)[nH]c2=O)cc1OC	0.9	98	.	.	37%
Cc1ccc(C(=O)NCC2CCCO2)cc1N1CCCC1=O (stereo not given)	4.9	-3	1	-34	-5%
CC(C)C(=O)NC(=S)Nc1ccc(S(=O)(=O)N(C)C)cc1	-0.2	-1	-6	-10	-2%
O=C(O)c1ccc(-n2c(=O)c3ccccc3c3ccccc3c2=O)cc1	32*	7	-5	.	-8%
CCCn1c(N2CCN(CC(=O)Nc3ccc4c(c3)OCCO4)CC2)nc2ccccc21	0.9	-2	5	2	-9%
COc1ccc(OC)c(C(c2c(O)c3ccccc3oc2=O)c2c(C)n(C)n(-c3ccccc3)c2=O)c1 (stereo not given)	-1.8	-6	8	.	-2%
CCN(CC(=O)Nc1ccc(OC)cc1)C(=O)c1ccccc1Sc1ccccc1C#N	-3.3	-3	.	.	.
Cc1ccc(Cn2nnc3c(=O)[nH]c(C4CCCN(C(=O)Nc5ccc(F)cc5F)C4)nc32)cc1 (stereo not given)	-0.1	35	-21	-5	3%
CCOC(=O)c1c(NC(=O)CSc2n[nH]c(N)n2)sc(CC)c1C	-1.1	-12	13	-30	3%
Brc1ccc(OCc2ccccc2)c(CNCc2ccncc2)c1	3.1	15	-7	-8	4%
O=C1CSC(c2ccccn2)N1c1ccc(Cl)c(Cl)c1 (stereo not given)	0.4	-7	-8	-19	-7%
CCc1ccc(S(=O)(=O)NCCOc2cccc3cccnc23)cc1	2.1	1	.	.	.
Cn1c(SCC(=O)Nc2nc3c(s2)CCCC3)nnc1-c1ccccc1	1.1	-8	-1	-4	-4%
CC1OC(Nc2ccc(OC(F)(F)F)cc2)C(O)C(O)C1O (stereo not given)	0.3	0	3	-51	-9%
CCCN(CC1CC1)C(=S)Nc1ccccc1F	-8.1	-6	-2	.	-3%
S=c1[nH]c2cnccc2n1Cc1ccccc1	4.2	-8	.	.	.
CCOc1ccc(C(C)=O)cc1CSc1nc(C)cc(C)n1	1.2	5	-3	.	8%
CN1CCN(S(=O)(=O)c2ccc(Sc3nnc(-c4cccs4)n3-c3ccccc3)nc2)CC1	0.5	-10	7	-139	-11%
Cc1cccc(N=Nc2c(C)[nH]n(C(N)=S)c2=O)c1C	3.8	95	17	.	.
COc1ccccc1CN(C)CC(=O)Nc1ccc(Cl)cc1C(F)(F)F	7.0	3	-22	8	15%
CC(=O)Nc1ccc(NC(=O)CCCNC(=O)c2ccc(Cl)cc2)cc1	-0.1	6	.	.	.
NC(=O)CC(NC(=O)Cc1cccc2ccccc12)c1ccc(NCCOc2ccccc2)c([N+](=O)[O-])c1 (stereo not given)	0.9	-14	.	.	-2%
N#Cc1ccccc1COC(=O)c1cc(=O)c2ccccc2o1	-0.7	-3	.	.	.
COc1cccc(O)c1CN1CCCC(C(=O)c2sccc2C)C1 (stereo not given)	-0.8	8	19	.	-4%
CCCCN(C(=O)c1ccc([N+](=O)[O-])o1)c1c(N)n(CC(C)C)c(=O)[nH]c1=O	-65	-1	.	.	.
COc1cccc(C(C)NC(=O)C2CCCO2)c1 (stereo not given)	1.1	-4	.	.	.
CCc1ccc(-c2cnc3ccccc3n2)cc1NC(=O)CNC(=O)c1ccccc1	0.6	6	.	.	.

Retrieved one by one from the list above:
SMILES	RecA intein inh	Mtb bLac sens	Arbovirus inh	YopH inh	Mtb H37Rv	others
CC(=O)Nc1ccc(NC(=O)CCCNC(=O)c2ccc(Cl)cc2)cc1	-0.1	6	.	.	.
CCOc1ccc(C(C)=O)cc1CSc1nc(C)cc(C)n1	1.2	5	-3	.	8%
CN1CCN(S(=O)(=O)c2ccc(Sc3nnc(-c4cccs4)n3-c3ccccc3)nc2)CC1	0.5	-10	7	-139	-11%
NC(=O)CC(NC(=O)Cc1cccc2ccccc12)c1ccc(NCCOc2ccccc2)c([N+](=O)[O-])c1 (stereo not given)	0.9	-14	.	.	-2%
COc1cccc(O)c1CN1CCCC(C(=O)c2sccc2C)C1 (stereo not given)	-0.8	8	19	.	-4%
COc1ccccc1CN(C)CC(=O)Nc1ccc(Cl)cc1C(F)(F)F	7.0	3	-22	8	15%

Further entries
SMILES	RecA intein inh	Mtb bLac sens	Arbovirus inh	YopH inh	Mtb H37Rv	others
C/C(N)=C(/C#N)C(=O)COC(=O)CSc1ccccc1	4.1	6	0	-3	-5%
Cc1cccnc1NC(=O)COc1ccc2c(c1)CCC2	-1.0	4	.	.	.
O=C(CCN1C(=O)[C@H]2CC=CC[C@H]2C1=O)NCc1nc(-c2ccc(Cl)cc2)no1	0.2	4	.	.	.
O=C(O)CSC1CC(=O)N(c2ccc(Cl)c(Cl)c2)C1=O (stereo not given)	9.5	-11	-3	14	-10%
O=C(CNS(=O)(=O)c1ccc(Cl)cc1)N/N=C/c1ccco1	-0.3	-9	1	.	-6%
O=C(COc1cccc(Br)c1)N/N=C/C(=O)c1ccccc1	-0.6	69	-7	.	62%
Cc1ccc(C(C(=O)NCC2CCCO2)N(Cc2ccccc2)C(=O)c2ccc(-c3ccccc3)[nH]2)o1 (stereo not given)	-0.8	96	-26	-28	20%
Cc1nc2ccccc2cc1C(=O)N(C)Cc1ccccc1	1.7	-1	.	.	.
CC1(c2ccccc2)NC(=O)N(CC(=O)Nc2cc(S(=O)(=O)N3CCOCC3)ccc2Cl)C1=O (stereo not given)	1.0	-8	12	.	1%
CCOC(=O)C1CCCN(C(=O)c2ccc3nc(-c4cccc(OC)c4)oc3c2)C1 (stereo not given)	3.9	77	.	.	.
O=C(Nc1ccccc1)N1N=CCC1c1ccccc1 (stereo not given)	2.4	.	-1	.	6%
Cc1cc(C)n(C(C)CC(=O)N2CCc3ccccc32)n1 (stereo not given)	3.3	2	.	.	.
O=S(=O)(Nc1nc2c(s1)CCCC2)c1ccc(F)cc1	1.1	-1	10	-21	-2%
CCc1ccccc1N(CC(=O)NC1CCCCC1)C(=O)CCC(=O)Nc1ccccn1	1.8	0	.	.	.
CC(/C=N/NC(=O)c1cc(-c2ccc(C)o2)[nH]n1)=C\c1ccccc1	0.7	-5	-7	-17	9%
Cc1nn(Cc2cccc(Oc3ccccc3)c2)c(C)c1NC(=O)NC12CC3CC(CC(C3)C1)C2	-0.2	5	-3	-28	-3%
CNc1cc(N2CCN(S(=O)(=O)N(C)C)CC2)ccc1[N+](=O)[O-]	.	-2	5	.	5%
CC(C)(CNC(=O)Cc1ccc(Cl)cc1Cl)N1CCOCC1	-0.3	1	.	.	.
CCOC(=O)c1c(-c2ccc(-c3ccccc3)cc2)csc1NC(=O)CNCCN(C)C	27	100	.	.	.
COc1ccc(-c2cc(-c3ccc(Cl)cc3)c(C#N)c(SCC(=O)O)n2)cc1	-2.7	3	.	.	.
O=C(CCc1cn2ccccc2n1)NC1CCCc2c1cnn2-c1ccccc1F (stereo not given)	-6.6	3	.	.	.
CCN(C(=O)c1cc2ccccc2oc1=O)c1ccccc1	-1.0	0	-8	-22	4%
Cc1nc2ccccc2c2oc(C(=O)N3CCc4ccccc4C3)cc12	0.8	-10	-4	6	-1%	Arbovirus inh repeat=-16
O=c1c([N+](=O)[O-])cccn1Cc1cccc(Cl)c1	-5.8	-11	-6	.	-8%
Oc1ccccc1/C=N/NC(=S)NCCc1ccccc1	-1.1	9	.	.	.
CCOc1ccc(Nc2nc(N)nc(CN3CCN(c4ccccc4F)CC3)n2)cc1	-1.2	88	1	.	7.8µM*
O=[N+]([O-])/C=C\c1ccc(N2CCCC2)c(F)c1	-2.0	.	-33	.	.
Cc1cc(S(=O)(=O)NC2CCCCC2)ccc1OCC(=O)NCc1ccccn1	11	-13	5	-26	7%
Cc1cc2c(n1-c1ccc(C(=O)O)cc1)CCCCC2	0.3	-2	.	.	.
C/C(=C\C(=O)c1ccccc1)Nc1ccc(Br)c(Cl)c1	-1.1	-8	.	.	.
CCn1c(C(C)NC(=O)c2ccccc2C)n[nH]c1=S (stereo not given)	-5.0	-1	-1	.	2%
CCOC(=O)C1=C(C)Nc2nnnn2C1c1ccc(OC)c(Br)c1 (stereo not given)	5.1	-2	3	-40	6%	Arbovirus inh repeat=8
CC(C)CCOc1ccc(C2(C)NC(=O)N(CN3CCOCC3)C2=O)cc1 (stereo not given)	-2.0	-16	0	-4	10%
O=C1CC(N2CCC(c3nc4ccccc4s3)CC2)C(=O)N1Cc1ccccc1 (stereo not given)	0.6	5	5	-14	-2%
COc1ccc(-c2nc(=S)[nH][nH]2)cc1OC	0.3	1	5	.	5%
CCCCN(CC)CCCNC(=O)c1cc2c(-c3ccc(OC)c(OC)c3)nn(C)c2s1	0.0	1	.	.	.
O=S(=O)(NCCc1csc(-c2cccnc2)n1)c1ccc(Cl)s1	0.2	-2	12	3	9%	Arbovirus inh repeat=1
COc1cc(NC(=O)CCn2c(=O)oc3ccccc32)cc(OC)c1OC	1.6	-4	.	.	.
CCNS(=O)(=O)c1ccc(NC(=O)Nc2cc(C)ccc2OC)cc1	-2.5	-5	.	.	2%
COc1ccc(S(=O)(=O)N2CCSC2c2ccc(N)cc2)cc1 (stereo not given)	-2.2	-7	-7	-25	5%
CN(C)S(=O)(=O)c1ccc(N2CCN(S(=O)(=O)c3ccc(F)cc3)CC2)c(Cl)c1	.	1	7	-7	18%
CCC1CCCCN1C(=O)c1sc2ncnc(N(CC)CC)c2c1C (stereo not given)	-0.3	1	1	.	-3%
CS(=O)(=O)N(CCC#N)Cc1ccco1	-2.3	-4	7	.	-3%
COc1ccc2nc(SCC(=O)Nc3ccccc3C#N)[nH]c2c1	-0.6	1	0	-48	-1%
Cc1ccc(S(=O)(=O)Nc2cccc(C(=O)NCC(C)(C)N3CCOCC3)c2)cc1F	-3.3	-2	.	.	.
O=C1CC(c2ccccc2)Cc2nc3ncnn3cc21 (stereo not given)	-0.8	-2	-1	-9	-7%
O=C(CNC(=O)Cc1ccccc1)NCC(=O)N1CCN(C(c2ccccc2)c2ccccc2)CC1	0.2	-4	.	.	.
CCn1c(SCC(=O)N2CCCC2)nc2ccccc21	6.4	6	8	.	8%
COc1cccc(N(CC(=O)NCCN2CCOCC2)S(=O)(=O)c2ccccc2)c1	-1.2	-7	.	.	.
O=C(NCc1nc(-c2ccccc2)no1)c1ccc(Br)o1	1.0	-1	3	-30	4%
COc1ccc(/C=N/NC(=O)c2nnn(-c3nonc3N)c2-c2cccs2)c(OC)c1	-1.6	-6	.	.	.
COc1ccccc1C(=O)NC1CCSc2ccccc21 (stereo not given)	3.2	-3	.	.	.
Cc1ccc(SCCNC(=S)Nc2cc(C)ccc2C)cc1	13	6	-27	-10	7%
CN1CCN(c2cc(=O)n(Cc3ccc(F)cc3)c(=O)[nH]2)CC1	-2.2	1	7	-19	23%
Clc1ccc(NCc2nnc3n2CCCCC3)cc1	0.0	-12	1	-5	-6%
COc1ccc(C(=O)COC(=O)c2ccccc2C(=O)N(C)c2ccccc2)c(OC)c1	5.1	2	.	.	.
COc1ccc2oc(=O)c(C(=O)n3ccc(C)n3)cc2c1	.	2	3	5	-1%
Cc1ccc(-c2nnc(OCCN3CCOCC3)c3ccccc23)cc1	-2.3	1	4	1	7%
CSc1ccc(CN2CCC(Cc3ccccc3)CC2)cc1	-1.5	-1	.	.	.
Cn1c(=O)c2c(SCC(=O)Nc3ccccc3F)nc(C3CC3)nc2n(C)c1=O	1.7	-5	.	.	.
COc1ccc(C2CC(c3cccs3)=NN2C(=O)CSc2nc3ccccc3s2)cc1 (stereo not given)	0.7	2	5	-21	7%

Some of the compounds tested. The share of hits here may be higher or lower than overall.
